Yeast UUG start: alters start codon recognition fidelity in yeast. S. cerevisiae UUG-firefly luciferase reporter, luminescence/redox ratio. AID 602363. activity score, % at 18.7 µM. 350,000 tested, 0.13% active;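 active = replicate mean at a twofold rise or more, about +100% in these data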;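 also: firefly luciferase made from a UUG start codon reports start codon fidelity; reporter light over untreated wells divided by growth signal over untreated wells; some hits fall short of that in this replicate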
PABP polyA inh: blocks human PABP binding to poly(A) RNA; P11940; fluorescence polarization; inhibition, % at 35 µM; 290,000 tested, 1% active; AID 2014;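 active = 50% or more with normal probe brightness, or confirmed in later tests; inconclusive = above 50% with abnormal brightness, or retests that disagree; inactive = below 50% or failed in later tests; about a fifth of its hits are not listed in these tables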;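 also: calls also rest on retests at 20 µM and on dose response follow-up; controls were probe without protein and protein plus probe with vehicle; some compounds called inactive have numbers as strong as hits; many hits fall short of the cut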
Rce1 inh: blocks yeast Ras-converting enzyme. calls only. yeast membranes, quenched prenylated peptide cleavage fluorescence. 290,000 tested, 0.27% active;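 active = fall in fluorescence gain of 50% or more versus controls, with final raw signal at or below 3038400; inconclusive = same 50% fall but final raw signal above 3038400; inactive = fall in fluorescence gain under 50%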;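 also: plate controls were neutral control wells for no effect and wells lacking membranes for full effect; tested at 10 µM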
Target sequence (Q03530 whole entry, looked up): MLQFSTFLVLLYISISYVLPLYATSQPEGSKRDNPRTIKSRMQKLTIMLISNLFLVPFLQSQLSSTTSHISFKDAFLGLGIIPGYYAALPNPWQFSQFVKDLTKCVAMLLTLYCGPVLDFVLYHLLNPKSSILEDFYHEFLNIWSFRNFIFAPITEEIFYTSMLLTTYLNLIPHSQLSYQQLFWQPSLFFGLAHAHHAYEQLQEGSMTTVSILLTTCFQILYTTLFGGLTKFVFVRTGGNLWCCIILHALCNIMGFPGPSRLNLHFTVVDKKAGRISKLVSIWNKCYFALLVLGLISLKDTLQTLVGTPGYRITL
eIF4H inh: inhibitors of RNA binding by human eIF4H | AID 2012 | 290,000 tested, 0.94% active | inhibition, % at 35 µM | eIF4H fluorescence polarization binding assay | Q15056;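 active = 50% or more with normal probe brightness, or confirmed in later tests; inconclusive = above 50% with abnormal brightness, or retests that disagree; inactive = below 50% or failed in later tests; about a fifth of its hits are not listed in these tables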;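 also: calls also rest on retests at 20 µM and on dose response follow-up; 0% = protein and probe with vehicle and 100% = probe without protein; strong numbers were not always called active; many hits fall short of the cut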
CSC inhib: cancer stem cell inhibition; cancer stem cell-like cells viability, luminescence; inhibition, % at 7.5 µM; 300,000 tested, 1.1% active; AID 2717;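 active = mean at 75% or more and at least half the replicates too; inconclusive = mean and replicates disagree; tested in HMLE shEcad cells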;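 also: 0% = median of negative and 100% = median of positive control wells; the first replicate is given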
MT1-MMP act inh: MT1-MMP (human) activation inhibition | P50281 | HT1080 RFP-PRO-GFP cells, GFP/RFP ratio fluorescence, overnight; percent of plate control window, DMSO zero | GFP/RFP ratio change, % at 20 µM | 360,000 tested, 0.061% active | AID 651647;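 active = GFP/RFP ratio change of at least 30% with cell ATP level not reduced by more than half and red fluorescence within 50% of control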; also: strong numbers were not always called active
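Assay system – RFP-PRO-GFP reporter HT1080 cells · Compound dosing – single dose of 20 µM compound, 1% DMSO final · Incubation – overnight compound exposure at 37 °C · Measure – GFP/RFP fluorescence ratio · Benchmarks – DMSO wells and RFP-L50D-GFP cells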
HIV Env fusion: inhibitors of HIV Env-mediated cell fusion | HeLa-JRFL Env/CEM21 cell fusion, luciferase | inhibition, % at 12.3 µM | 360,000 tested, 1.1% active | AID 651610;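 active = mean replicate inhibition score of at least 50 and every replicate individually at or above 50; inconclusive = only one of the two criteria met; inactive = mean below 50 and not all replicates reaching 50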;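 also: 0% = plate neutral controls and 100% = maraviroc near 300 nM; one replicate is shown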
MT1-MMP act inh RFP: second read-out of MT1-MMP act inh, no call of its own (marks repeat the call); RFP signal change, %; measured here: RFP expression control read;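 0 = vehicle wells; hits needed this value within 50% of zero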
Numbers without * were called inactive; i = inactive; ? = inconclusive; · = not tested or not shown; & = joins results of further samples.

SMILES	Yeast UUG start	PABP polyA inh	Rce1 inh	eIF4H inh	CSC inhib	MT1-MMP act inh	MT1-MMP act inh RFP	HIV Env fusion
O=S(=O)(N/N=C\c1ccccc1O)c1ccc(Cl)cc1	2	4	i	-9	7	0	0	-53
O=C(Nc1ccccc1C(=O)N1CCCC1)c1ccc(Cl)c([N+](=O)[O-])c1	·	-13	i	-8	·	7	0	-19
Cc1cc2c(=O)[nH]cnc2s1	·	9	i	5	4	3	6	·
CCOC(=O)c1c(NC(=O)CSc2c[nH]c3ccccc23)sc2c1CCCC2	-2	15	i	0	55	-3	-6	28
Cc1ccc(C)c(N2CCN(CCN3CCCCC3)CC2)c1	-14	14	i	1	56	3	5	-12
Cc1nc(CNS(=O)(=O)c2cccnc2)cs1	-3	-5	i	-4	-20	-1	1	·
COc1cccc(C=Nc2cccnc2)c1O	·	3	i	6	-9	·	·	·
NC(=O)COC(=O)c1ccccc1SCC(=O)NC1CCCCCC1	-8	2	i	-8	-8	2	4	-32
COc1cccc(/C=N/Nc2ncnc3c2[nH]c2ccc(C)cc23)c1OC	·	-24	i	13	-10	11	-3	25
COc1cc2[nH]c(=O)n(CCC(=O)NCCC(C)C)c(=O)c2cc1OC	7	-9	i	0	-4	1	2	0

In the list so far, these have a thiophene ring, fused or not.
SMILES	Yeast UUG start	PABP polyA inh	Rce1 inh	eIF4H inh	CSC inhib	MT1-MMP act inh	MT1-MMP act inh RFP	HIV Env fusion
Cc1cc2c(=O)[nH]cnc2s1	·	9	i	5	4	3	6	·
CCOC(=O)c1c(NC(=O)CSc2c[nH]c3ccccc23)sc2c1CCCC2	-2	15	i	0	55	-3	-6	28

The results go on.
SMILES	Yeast UUG start	PABP polyA inh	Rce1 inh	eIF4H inh	CSC inhib	MT1-MMP act inh	MT1-MMP act inh RFP	HIV Env fusion
COc1ccc(-c2c[n+](CC(=O)c3cccs3)c3n2CCC3)cc1	·	-2	i	-18	-5	·	·	-1
CC(=O)Nc1ccnn1C1CCN(C(=O)c2cccc(C)c2C)CC1	-16	-13	i	-10	7	-3	-6	1
CC(CCc1ccccc1)NCC(O)c1cccc([N+](=O)[O-])c1 (centres undefined)	·	1	i	0	-5	1	0	-28
CCOC(=O)C1(Cc2cccc(OC)c2)CCN(Cc2ccc3c(c2)OCCO3)CC1	-3	7	i	-8	4	-6	-2	-17
Cc1ccc(NC(=S)Nc2ccc(S(=O)(=O)N3CCOCC3)cc2)cc1S(=O)(=O)N1CCOCC1	-14	4	i	-8	-13	-2	0	1
COC(=O)C1=C(C)N(CCCC(=O)O)C(=O)NC1c1ccc(-c2ccccc2)cc1 (centres undefined)	-8	-4	i	1	2	9	0	-23
O=C1COc2ccc(C(=O)COC(=O)c3cnc(Cl)c(Cl)c3)cc2N1	·	0	i	-2	-14	1	2	15
CCn1nc(C)c(Br)c1-c1nc(CS(=O)(=O)c2ccsc2)no1	-9	-1	i	4	8	5	2	13
Cc1cc(/C=C(\C#N)C(=O)NCc2cccs2)c(C)[nH]1	·	10	i	5	-8	2	3	1
CCN1CCN(c2ccc(S(=O)(=O)N3CCCCC3)cc2NC(=O)Cc2ccc(OC)cc2)CC1	14	-1	i	-1	17	4	6	-37
O=C(NCc1ccccc1)c1ccc(Cl)c(S(=O)(=O)N2CCCC2)c1	9	·	·	·	-21	3	-4	11
Cc1cc(C)cc(NC(=O)C2CC3CCC2C3)c1 (centres undefined)	-11	-4	i	-2	-15	0	3	-25
CCC(C(=O)O)N1C(=O)/C(=C/C(C)=C/c2ccccc2)SC1=S (centres undefined)	·	4	i	2	21	-3	4	-6
CCOC(=O)Nc1c(C(=O)OC)[nH]c2cc(OC)ccc12	-11	-4	i	-17	27	2	1	·
O=C(NCCN1CCOCC1)C(=O)NCc1ccc2c(c1)OCO2	·	0	i	-8	3	5	7	-29
COCCN(CC(=O)NCC1CCCO1)C(=O)CCC(=O)Nc1ccccn1 (centres undefined)	·	-2	i	2	-4	-2	0	4
CCOc1ccc(NC(=O)CSc2nnc(Cn3cnc4ccccc43)n2C)cc1	-30	-9	i	0	-10	12	7	·
O=C(Nc1cc2c3c(c1)CC(=O)N3CCC2)c1ccc(Br)o1	-26	·	i	·	-2	4	6	-27
Cc1nonc1CN(C)C(=O)c1ccc(OC2CCN(C(=O)c3cccnc3)CC2)cc1	1	6	i	-7	-3	2	1	-4
COc1ccc(CCC(=O)NCc2cccc(C(F)(F)F)c2)cc1	-36	-4	i	-1	-4	3	2	13
Cc1ccc(C(=O)O)cc1NC(=O)Nc1cccc2ccccc12	-10	8	i	-5	·	-1	2	·
COc1cccc(CNC(=O)CCS(=O)(=O)c2ccc3c(c2)oc(=O)n3C)c1	-19	8	i	2	-2	-3	-1	3
CCOCCCNC(=O)c1ccc2c(c1)ncn2-c1ccc(CC)cc1	-13	-3	i	-5	9	5	-1	7
C=CCn1c(C(C)C)nc2ccccc21	-10	-2	i	-14	17	-1	3	9
Cc1onc(-c2c(Cl)cccc2Cl)c1C(=O)NC(=S)Nc1sc2c(c1C(N)=O)CCC(C)C2 (centres undefined)	·	-17	i	-20	-14	·	·	9
O=C(Nc1nc(-c2ccccc2)cs1)c1cccc(S(=O)(=O)N2CCN(Cc3ccccc3)CC2)c1	-19	3	i	-1	5	-8	-15	36
Cc1ccc(C2C(C(=O)c3cc4ccccc4o3)=C(O)C(=O)N2c2cc(C)on2)cc1 (centres undefined)	-21	10	i	6	-9	-2	2	-1
CCCCc1ccc(NC(=O)CSCc2cc(=O)[nH][nH]2)cc1	-2	0	i	12	17	16	1	20
O=C(Nc1cc(Br)ccc1O)c1cc(-c2ccco2)on1	-26	1	i	6	17	6	2	0
COc1ccc(NC(=O)c2cc(-c3cc(F)ccc3OC(C)C)n[nH]2)c(OC)c1	-10	·	·	·	·	-10	-10	32
CC(=O)N1N=C(c2ccc(C)cc2)OC1c1ccc(C)cc1 (centres undefined)	-15	-5	i	0	-7	1	1	-15
CN1C(=O)C(C)(C)c2cc(S(=O)(=O)N3CCN(c4ccccc4F)CC3)ccc21	2	5	i	2	-4	0	-12	3
COCCNc1cc(C)nc2c(-c3ccccc3OC)c(C)nn12	-26	5	i	-6	5	3	-1	1
COCCOc1ccc(C(F)(F)F)cc1NC(=O)COC(=O)C1=COCCO1	2	·	i	·	·	5	-2	-17
Cc1ccc2c(c1)NC(=O)C(CC(=O)NCCCN1CCCCC1C)O2 (centres undefined)	-14	-7	i	6	-27	2	4	32
O=C(CNCc1ccco1)Nc1cccc(S(=O)(=O)N2CCCCC2)c1	0	-4	i	-9	1	0	0	13
COCCNc1nc(NCCCN(C)C)c2sccc2n1	-12	·	·	·	·	0	4	6
Cn1c(N2CCN(C(=O)NC34CC5CC(CC(C5)C3)C4)CC2)nc2ccccc21	·	-6	i	0	14	10	3	-6
COC(=O)c1ccc(NC(=O)c2cccc(C)c2[N+](=O)[O-])cc1	-9	-2	i	-1	0	3	4	14
COc1cccc(C(=O)NC2C(=O)N3C(C(=O)O)=C(COC(C)=O)CSC23)c1 (centres undefined)	-5	·	·	·	-15	-16	4	-7
Cc1cccnc1NC(=O)Nc1cccc(Cl)c1	-9	6	i	-4	-4	0	2	-29
CC(C)c1ccc(C(=O)NCc2ccc(Cl)cc2)cc1	-19	0	i	-4	-7	0	0	-36
CNC(=S)N(CCc1c(C)[nH]c2ccc(Cl)cc12)Cc1cccnc1	-27	12	i	-5	6	-2	-1	4
C[C@@H](OC(=O)N(C)Cc1ccccc1)[C@H]1O[C@]2(C)CCCC[C@H]1O2	0	·	·	·	-10	-4	-2	-18
O=C(NCCOc1ccc(F)cc1)C1CCN(S(=O)(=O)c2ccccc2)CC1	-6	-21	i	-4	-4	-1	2	-10
Clc1cccc(Sc2ccc(-c3ccccn3)s2)c1	·	10	·	-2	19	-3	0	9
FC(F)Oc1ccccc1NC(=S)Nc1cccnc1	·	5	i	4	4	1	4	-8
Cn1c(=O)n(CC(=O)NC2CCCCC2)c(=O)c2ccccc21	-19	5	i	3	-4	-1	1	·
Cc1ccc(C(C)NC(=O)c2c(-c3ccccc3)noc2C)cc1C (centres undefined)	-6	1	i	-10	6	0	-3	-1
NS(=O)(=O)c1ccc(NCc2ccccc2OCc2ccc(F)cc2)cc1	·	-2	i	1	4	-3	-21	·

Next section:
SMILES	Yeast UUG start	PABP polyA inh	Rce1 inh	eIF4H inh	CSC inhib	MT1-MMP act inh	MT1-MMP act inh RFP	HIV Env fusion
Cc1ccc(NC(=O)C2CC(=O)N(c3ccc4c(c3)OCCO4)C2)cc1S(=O)(=O)N1CCCCCC1 (centres undefined)	7	·	i	·	-14	-11	-18	2
CCOC(=O)C1CCN(C(=O)c2cc3cc4ccc(OC)cc4nc3o2)CC1	-18	3	i	1	3	6	4	-14
O=C(CC(O)c1ccncc1)c1ccccc1O (centres undefined)	-9	·	·	·	·	2	2	-70
O=[N+]([O-])c1ccc(CSc2nnc(-c3cccnc3)o2)cc1	-15	-4	i	0	-7	-4	-4	6
COc1cccc(OCCCn2cc(/C=C3/C(=N)N4C=C(C)SC4=NC3=O)c3ccccc32)c1	·	-13	i	?	13	-7	-1	13
CC(C)c1ccc(C2(C)NC(=O)N(CC(=O)N3CCN(C(=O)c4cccs4)CC3)C2=O)cc1 (centres undefined)	-5	·	·	·	·	2	-9	1
CC(C)C[C@H]1CN=C(Nc2ccccc2)N1CCC1CCCC1	-15	0	i	4	4	1	2	4
CC1CC1c1ccc(/C=C(\C#N)C(=O)Nc2cccc(Cl)c2Cl)o1 (centres undefined)	13	-6	i	2	38	-6	-1	4
COCCn1c(SCC(=O)NC2CCCCC2)nc2c(c1=O)SCC2	4	-2	i	10	-7	-1	5	9
CCCNC(C)(C)COC(=O)c1ccccc1	-11	·	·	·	0	-2	0	8
Cc1ccc(C(=O)NC(=O)CSc2ncccc2C(=O)O)cc1	·	8	i	-8	0	5	7	0
Cc1noc(C)c1NC(=O)N(C)C[C@H]1Oc2c(NC(=O)Cc3ccccc3)cccc2C(=O)N([C@H](C)CO)C[C@@H]1C	0	·	·	·	-21	-6	1	-22
Cc1ccc(S(=O)(=O)N(C)C)cc1NC(=O)CSc1nc2ncc(Cl)cc2[nH]1	-14	·	·	·	·	-2	-7	16
c1cncc(COC2CCCN(Cc3nc(-c4cccs4)no3)C2)c1 (centres undefined)	·	-8	i	-12	0	4	3	22
CCN(CC)CCNC(=O)c1ccc(NC(C)=O)cc1	1&-18&-15&1	1&-1	i	-8&-8	-14&-6	1&2	3&5	5
O=C(O)c1cc(S(=O)(=O)NC23CC4CC(CC(C4)C2)C3)ccc1Cl	2	2	i	-8	-1	-1	1	-25
CCOc1ccc(OCC)c(NC(=O)CN2CCN(CC(=O)NC(C)C)CC2)c1	-14	4	i	6	-14	1	-2	6
COC(=O)c1sc(NC(=O)COc2cccc(C)c2)nc1C	-14	4	i	-5	14	1	4	-13
COc1cc(/C=N/NC(=O)c2cccc([N+](=O)[O-])c2)ccc1OCc1ccccc1	-9	8	i	14	17	12	0	·
COc1ccc(-c2nc(CN3CCC(C(=O)NCC4CCCO4)CC3)c(C)o2)cc1OC (centres undefined)	·	4	i	0	-8	1	3	-3
O=C(O)CCCC(=O)Nc1ccc(C(=O)NCc2cccnc2)cc1	0	6	·	-7	-1	-7	-1	1
O=C(COC(=O)CCc1ccc(S(=O)(=O)N2CCOCC2)cc1)NC(=O)NC1CCCCC1	·	8	i	3	-2	-2	2	13

Outcome played no part in choosing rows, and some 2.9% of all compounds hit somewhere here.
